Bioassay records as filed in PubChem BioAssay.
KCNQ2 block = KCNQ2 channel blockers in CHO-K1 cells – cell-based, FluxOR thallium flux, B-score, primary screen (AID 2156); O88943; 20 min; stronger effect = lower value; only compounds with negative scores are shown here; some inactives read as strong as hits; B-score at 10 µM; 310,000 tested, 1.1% active;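 active = fluorescence ratio B-score at most minus 3 library SDs, with starting brightness B-score within 2 library SDs, cut at about -5.5 in these data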
Target sequence (O88943 whole entry, looked up): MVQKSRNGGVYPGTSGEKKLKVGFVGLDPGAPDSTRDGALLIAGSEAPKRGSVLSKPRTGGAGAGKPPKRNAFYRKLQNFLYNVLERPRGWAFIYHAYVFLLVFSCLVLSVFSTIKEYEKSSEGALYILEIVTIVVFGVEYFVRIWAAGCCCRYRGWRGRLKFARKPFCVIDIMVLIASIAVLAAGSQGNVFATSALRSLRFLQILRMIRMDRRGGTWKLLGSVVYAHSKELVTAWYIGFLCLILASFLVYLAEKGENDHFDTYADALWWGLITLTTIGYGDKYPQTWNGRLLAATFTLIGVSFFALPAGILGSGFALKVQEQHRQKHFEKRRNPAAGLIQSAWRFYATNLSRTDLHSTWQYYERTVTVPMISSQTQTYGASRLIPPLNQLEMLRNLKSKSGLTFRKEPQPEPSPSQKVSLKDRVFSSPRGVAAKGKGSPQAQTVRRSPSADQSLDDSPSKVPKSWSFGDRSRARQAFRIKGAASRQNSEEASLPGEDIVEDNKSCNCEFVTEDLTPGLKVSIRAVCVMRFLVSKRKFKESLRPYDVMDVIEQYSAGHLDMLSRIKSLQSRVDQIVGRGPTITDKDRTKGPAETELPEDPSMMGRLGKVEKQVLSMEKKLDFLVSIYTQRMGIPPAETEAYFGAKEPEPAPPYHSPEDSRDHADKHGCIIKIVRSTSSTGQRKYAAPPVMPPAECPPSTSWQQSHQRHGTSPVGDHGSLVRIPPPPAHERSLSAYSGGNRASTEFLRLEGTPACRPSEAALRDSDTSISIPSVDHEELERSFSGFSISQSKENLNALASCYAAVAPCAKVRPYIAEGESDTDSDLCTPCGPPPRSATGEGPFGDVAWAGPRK
KCNQ2 block baseline = recorded beside KCNQ2 block, whose call it bears; B-score; measured here: initial fluorescence intensity artifact check;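 brightness before thallium and not channel activity; 0 = typical well and far values either way flag optical interference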
An asterisk follows results filed as active; i = inactive. This is a subset; count on the stated rates, not on these rows.

The first 4 compounds as a preview:
SMILES	KCNQ2 block	KCNQ2 block baseline
CC12CCC(C(=O)N3CCN(Cc4ccccc4)CC3)(OC1=O)C2(C)C (stereo not drawn)	i	0.83
O=S(=O)(c1ccc(Cl)cc1)c1nc(-c2ccccc2F)oc1NCCN1CCOCC1	i	1.1
Cc1cc(C(=O)NCC2CCCCC2)ccc1[N+](=O)[O-]	i	-2.2
O=C(CN(C(=O)CNC(=O)c1cccs1)c1cccc(F)c1)NC1CCCC1	i	1.3

The list itself (from the top)
SMILES	KCNQ2 block	KCNQ2 block baseline
CC12CCC(C(=O)N3CCN(Cc4ccccc4)CC3)(OC1=O)C2(C)C (stereo not drawn)	i	0.83
O=S(=O)(c1ccc(Cl)cc1)c1nc(-c2ccccc2F)oc1NCCN1CCOCC1	i	1.1
Cc1cc(C(=O)NCC2CCCCC2)ccc1[N+](=O)[O-]	i	-2.2
O=C(CN(C(=O)CNC(=O)c1cccs1)c1cccc(F)c1)NC1CCCC1	i	1.3
Cc1cccc(COC(=O)C(Cc2ccccc2)NC(N)=O)c1 (stereo not drawn)	i	-1.4
COc1ccc(Cl)cc1NC(=O)CSc1nc(N2CCCCC2)nc(N2CCCCC2)n1	i	0.02
CN1C(=O)NC(c2ccc(O)cc2)C2=C1CN(c1cccc3ccccc13)C2=O (stereo not drawn)	i	0.26
COc1ccc2nc(CC(C)(C)CC(=O)O)c[n+]([O-])c2c1	i	-1.8
CCCCn1c(N)c(N(CCOC)C(=O)Cn2c(=O)oc3ccccc32)c(=O)[nH]c1=O	i	2.4
COc1ccccc1-c1ccc(SCc2ccc([N+](=O)[O-])cc2)nn1	i	-1.3
Clc1ccc(-c2csc(N/N=C\c3cccnc3)n2)cc1	i	-0.28
S=C1N(c2ccccc2)C(c2ccc(Cl)cc2)N2CCCN12 (stereo not drawn)	i	1
O=C(Nc1cccc([N+](=O)[O-])c1)c1ccc2c(c1)OCO2	i	0.55
O=C(Nc1nc2ccc(F)cc2s1)C1=COCCO1	i	0.98
CC(NC(=O)[C@H](Cc1c[nH]c2ccccc12)NC(=O)[C@@H]1Cc2ccccc2CN1)c1ccccc1 (stereo partly drawn)	-5.9*	-1.9*
Cc1cc(=O)[nH]c(SCC2(O)C3CC4CC(C3)CC2C4)n1 (stereo not drawn)	i	0.67
CC(C)=CC(=O)OCC(=O)NC1CCCc2ccccc21 (stereo not drawn)	-6.7*	-0.29*
COc1ccc(C2=NN(C(=O)CSc3nc(=O)n4cc(C)ccc4n3)C(c3ccc(C)cc3)C2)cc1 (stereo not drawn)	i	-1.1
Cc1cccc(-c2nnc(SCc3ccc(C#N)cc3)n2Cc2ccco2)c1	-8.8*	0.11*
CN1CCN(C(=O)c2c(NC(=O)c3ccco3)sc3c2CCC(C(C)(C)C)C3)CC1 (stereo not drawn)	i	0.11
COc1cccc(CN2CCN(CCCc3ccccc3)C(CCO)C2)c1OC (stereo not drawn)	i	0.84
CCC(=O)c1cn(CC(=O)Nc2ccccc2F)c2ccccc12	i	3.4
Cc1cc(C)cc(NC(=O)N2CCN(C/C=C/c3ccccc3)CC2)c1	i	-1.2
CCOC(=O)c1c(C)n(-c2ccc(C)cc2)c2ccc(OCC(O)CNCCCO)cc12 (stereo not drawn)	-11*	-2.6*
O=C(NCc1nc2ccccc2[nH]1)C1=C[C@H](c2ccc(C(F)(F)F)cc2)C[C@H](OCCCCO)O1	i	2.4
Cc1ccc(S(=O)(=O)N(CC(=O)NCc2cccnc2)c2ccc(F)cc2)cc1	i	1
COc1ccc(NC(=O)CCCCCN2C(=O)[C@@H]3Cc4ccccc4CN3C2=O)cc1Cl	i	-0.74
O=C(C[n+]1cn(C(F)F)c2ccccc21)c1ccc(Br)cc1	i	-0.33
Cc1cccc(-c2nn(-c3ccccc3)cc2C(=O)NCC(c2cccs2)N2CCOCC2)c1 (stereo not drawn)	i	-0.86
CC1CN(Cc2ccccc2)c2nc3c(c(=O)n(CC(=O)O)c(=O)n3C)n2C1 (stereo not drawn)	i	1

In a second layout: entries from further up
Below each compound: KCNQ2 block | KCNQ2 block baseline
> COc1cccc(CN2CCN(CCCc3ccccc3)C(CCO)C2)c1OC (stereo not drawn)
    i | 0.84
> CCC(=O)c1cn(CC(=O)Nc2ccccc2F)c2ccccc12
    i | 3.4
> COc1ccc(NC(=O)CCCCCN2C(=O)[C@@H]3Cc4ccccc4CN3C2=O)cc1Cl
    i | -0.74
> CN1CCN(C(=O)c2c(NC(=O)c3ccco3)sc3c2CCC(C(C)(C)C)C3)CC1 (stereo not drawn)
    i | 0.11
> S=C1N(c2ccccc2)C(c2ccc(Cl)cc2)N2CCCN12 (stereo not drawn)
    i | 1

Continued.
SMILES	KCNQ2 block	KCNQ2 block baseline
CC(Oc1ccccc1F)C(=O)Nc1ccc2ccccc2c1 (stereo not drawn)	i	-0.02
CCOC(=O)Cn1c(=N)n(CCOc2ccc(Br)cc2)c2ccccc21	i	0.37
CC(NC(=O)c1ccccc1Cl)NC(=O)c1ccccc1Cl	i	-0.16
OCCCc1nc2n(n1)C(c1cccs1)C=C(c1ccccc1)N2 (stereo not drawn)	i	81
OCCCc1nc2ccccc2n1CCc1ccccc1	i	-1.4
O=C(Nc1cnccn1)c1cccs1	i	-0.25
Cc1ccc(F)cc1NC(=O)CN1CCN(Cc2ccccc2)CC1	i	1.6
O=C(OCc1ccc2c(c1)OCO2)c1ccc(S(=O)(=O)N2CCCC2)cc1	i	0.16
COc1ccc(OCCCC(=O)Nc2ccc(N3CCOCC3)cc2)cc1	i	-1.1
O=C(CN1C(=O)NC2(CCc3ccccc32)C1=O)Nc1cccc(F)c1 (stereo not drawn)	i	1.8
CCOC(=O)CCCNC(=O)COc1ccccc1C#N	i	-0.91
CCC(C)NC(=O)CSc1n[nH]c(=O)n1CCc1ccccc1 (stereo not drawn)	i	0.01
O=C(Nc1ccc(COc2ccccc2)cc1)c1cccc([N+](=O)[O-])c1	i	1.2
COc1ccc(Cl)cc1CSc1ncn[nH]1	i	-0.32
CC(C)c1nc(SCC(=O)N2c3ccccc3CC2C)c2ccccc2n1 (stereo not drawn)	i	1.3
O=C(CCCN1C(=O)/C(=C/c2ccccc2)SC1=S)Nc1ccccc1O	i	-0.38
Cn1ncc(Cl)c(Oc2ccc(C(C)(C)C)cc2)c1=O	i	1
CCCc1nc(N2CCN(S(=O)(=O)c3ccc(Cl)cc3)CC2)c2c(C)c(C)sc2n1	i	1.6
O=C(CO/N=C/c1ccccc1OC(F)F)NC1CCCCC1	i	0.12
Cc1ccc(C)c(NC(=O)C2C(c3ccccc3)C2(Cl)Cl)c1 (stereo not drawn)	i	2.1
CCOC(=O)c1c(S(=O)(=O)NCC(=O)Nc2ccccc2OC)c(C)n(C)c1C	i	1.5
COc1ccc(C)cc1-n1c(C)cc(C=O)c1C	i	1.2
Cc1ccc(C)c(NC2=C(Cl)C(=O)OC2OC(=O)c2ccco2)c1 (stereo not drawn)	i	-1.6
COc1cccc(N2C(=O)CN(Cc3ccccc3)C2=S)c1	i	0.47
O=C(Cn1nnc2ccccc21)OCC(=O)c1ccc(F)cc1	i	-0.25
O=C(CN1C(=O)NC2(CCCCC2)C1=O)Oc1ccc2c(C(F)(F)F)cc(=O)oc2c1	i	1.2
CC1CN(c2nc3ccccc3cc2-c2ccccc2)CC(C)O1 (stereo not drawn)	i	-0.95
O=[N+]([O-])c1cccnc1Oc1ccc(OCc2ccccc2)cc1	i	-0.15
COc1ccc(CCNCC(=O)N2C(C)CCCC2C)cc1OC (stereo not drawn)	i	0.81
COCCn1cnc2c1c(=O)n(CC(=O)NC(=O)NC(C)(C)C)c(=O)n2Cc1ccccc1	i	-1.1

Already shown: four of the compounds above.
SMILES	KCNQ2 block	KCNQ2 block baseline
O=C(Nc1cccc([N+](=O)[O-])c1)c1ccc2c(c1)OCO2	i	0.55
O=C(Nc1nc2ccc(F)cc2s1)C1=COCCO1	i	0.98
CC(NC(=O)[C@H](Cc1c[nH]c2ccccc12)NC(=O)[C@@H]1Cc2ccccc2CN1)c1ccccc1 (stereo partly drawn)	-5.9*	-1.9*
Cc1cc(=O)[nH]c(SCC2(O)C3CC4CC(C3)CC2C4)n1 (stereo not drawn)	i	0.67

Other results.
SMILES	KCNQ2 block	KCNQ2 block baseline
O=C(O)COCC(=O)Nc1ccc2c(c1)oc1ccccc12	i	-0.43
CC(C)(C)n1nnnc1C(c1cccs1)N(Cc1cccnc1)Cc1ccccc1Cl (stereo not drawn)	-6.2*	1.6*
Cc1ccc(C)c(NC(=O)CN(C)C(=O)CN2C(=O)C3CCCCC3C2=O)c1 (stereo not drawn)	i	1.2
NC(=O)c1sc2nnc(-c3ccccc3)c(-c3ccccc3)c2c1N	i	-0.2
COc1ccccc1C(=O)NNC(=O)CCCN1C(=O)/C(=C/c2cccs2)SC1=S	i	-0.83
Cc1cccn2c(=O)c3cc(C(=O)N4CCCC(C)C4)sc3nc12 (stereo not drawn)	i	1.1
Cc1ccc(NC(=O)CN2C(=O)N/C(=C/c3ccc(C)s3)C2=O)cc1	i	-0.12
Cc1ccc2cc(CN(CCN3CCOCC3)Cc3nnnn3Cc3ccco3)c(=O)[nH]c2c1C	i	2.3
COc1ccc(-c2noc(CCC(=O)N(C)c3cccc(C)c3)n2)cc1	i	-1.4
CN(CC(=O)Nc1ccc(N2CCOCC2)cc1)Cc1c(O)ccc2ccccc12	i	-0.39
Cc1cccc(OCCNC(=O)c2ncn[nH]2)c1	i	0.8
CC1CCC(NC(=O)C2CCC(CNS(=O)(=O)c3cccc4nsnc34)CC2)CC1 (stereo not drawn)	i	0.67
CCOc1ccccc1CNc1nc2ccccc2n1C	i	-2.2
Cn1cccc1CC(=O)NNC(=S)NC(=O)c1ccc(F)cc1	i	0.6
Cc1ccccc1NC(=O)C1CCN(C(=O)NC2CCCCC2)CC1	i	-0.13
COc1ccc(COC(=O)c2sc3nc4n(c(=O)c3c2C)CCC4)cc1	i	1.3
O=C(Nc1ccccc1)NC1CCCc2ccccc21 (stereo not drawn)	i	-0.53
Cc1nc2cc(C(F)(F)F)ccc2n1CCNc1nc(-c2cc(Cl)c(N)c(Cl)c2)cs1	i	-0.67
C=CC1=C2C=C(C3CC3)N(CC3CC3)C=C2C(=O)C(C)(OC(=O)c2ccco2)C1=O (stereo not drawn)	i	3
CCCc1nc2ccccc2n1CCOC	i	-0.03
COc1cc(NC(=O)c2ccccc2F)c(OC)cc1NC(=O)CN1CCCCC1	i	-0.96
CCOCCn1c(CN2CCC(Cc3ccccc3)CC2)nc2c1c(=O)n(C)c(=O)n2C	i	0.57
CCC(=O)N1CCN(c2ccc(NC(=O)COc3ccccc3Cl)cc2)CC1	i	-0.03
Clc1cccc(-c2nc(NCCCN3CCOCC3)c3ccccc3n2)c1	i	-2.1
O=C(N1CCOCC1)N1CCN(c2ccccc2)CC1	i	1.1
Cc1cc2oc(=O)cc(CN3CCN(Cc4ccccc4)CC3)c2cc1Cl	i	1.1
Cc1cc(C(=O)OCc2nc3ccccc3s2)c(C)o1	i	-0.25
COCCNC(=O)Cn1c(=O)n(CCCC(=O)NCc2ccc3c(c2)OCO3)c(=O)c2sccc21	i	-0.04
CC(=O)Nc1ccc(S(=O)(=O)NCCC(=O)Nc2ccc(C)c(F)c2)cc1	i	-0.9
Oc1ccc(Cl)cc1C1=NNC(c2cc(Br)cc3c2OCOC3)C1 (stereo not drawn)	i	0.04
Cc1nn(Cc2ccccc2Cl)c2sc(C(=O)Nc3ccccc3N3CCOCC3)cc12	i	-0.09
COCCn1c(SCC(=O)NC(C)c2ccc(F)cc2)nc2ccccc21 (stereo not drawn)	i	0.31
Cc1cccc(NC(=S)NC2CC3CCC(C2)N3Cc2ccco2)c1C (stereo not drawn)	i	-0.67
COc1ccc(/C=C2\SC(=S)N(CCC(=O)Nc3cccc(C(=O)O)c3)C2=O)cc1	i	-0.11
Cc1cc(C)nc(N(C#N)CCOc2ccccc2)n1	i	-1.7
C[C@H](NC(=O)c1nc[nH]c1C(=O)N[C@@H](Cc1ccccc1)C(=O)OCc1ccccc1)C(=O)OC(C)(C)C	i	-1.8
CCCn1nc(C(=O)Oc2ccc3c(C)cc(=O)oc3c2)c2ccccc2c1=O	i	0.95
CCC(C)C(NC(=O)CCC(=O)OCC(=O)[C@@]1(O)CCC2[C@@H]3CCC4=CC(=O)C=C[C@]4(C)C3[C@@H](O)C[C@@]21C)C(=O)O (stereo partly drawn)	i	0.01
CCOC(=O)C1=Nc2ccccc2C1=[N+]=[N-]	i	1.3
CCOc1ccccc1OCCCCOc1ccccc1F	i	-1.3
Cc1c(N2C(=O)c3ccc(F)cc3C2=O)c(=O)n(-c2ccccc2)n1C	i	-0.54
Cn1ccsc1=NC(=O)c1cc(S(=O)(=O)N2CCOCC2)ccc1Cl	i	0.84
O=C(N/N=C/c1ccc(C(F)(F)F)cc1)c1ccncc1	i	0.03
CCCSc1nn2c(=O)c3ccccc3nc2s1	i	-0.37
Cn1c2c(c(=O)n(C)c1=O)C(C(F)(F)F)(C(F)(F)F)N=C(c1ccccc1Cl)N2	i	1.2
O=C(Nc1nnc(-c2ccc(Cl)cc2)o1)C1CCCCC1	i	2.5
COC(=O)c1c(NC(=O)c2ccccc2)sc2c1CC(C)(C)OC2	i	1.5
Cc1ccc(Nc2c3c(nc4ccccc24)CCC3)cc1	i	-0.25
O=C(NCC(=O)N(c1cccnc1)C(C(=O)NC1CCCC1)c1ccc(F)cc1)c1ccco1 (stereo not drawn)	i	0.2
COC(=O)[C@H](CCSC)NC(=O)c1cccnc1SC	i	-0.08
Cc1c(C(c2cccc(O)c2)c2c(C)n(C)n(-c3ccccc3)c2=O)c(=O)n(-c2ccccc2)n1C	i	1.4
CCCC(=O)Nc1ccc(S(=O)(=O)Nc2cc(OC)nc(OC)n2)cc1	i	0.86
O=C(Cn1nnc(-c2ccc(CN3CCOCC3)cc2)n1)N1CCCc2ccccc21	i	1.5
CCOC(=O)C1(CCc2ccccc2)CCN(C(=O)c2occc2C)CC1	i	-0.51
